From PubChem
Ecoli WT expand = growth inhibitors of wild-type E. coli, primary screen, strain BW25113, expanded library, OD600; OD600 absorbance; growth inhibition, % at 100 µM; actives 0.15% (n = 98,000); AID 710, 2007;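 active = growth inhibition above about 50% at one test dose, limit read from the data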;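 also: growth measured after 20 h incubation at 37 °C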
PLK1 inh = human PLK1 kinase inhibitors, primary screen, biochemical, TR-FRET; Serine/threonine-protein kinase PLK1 (Homo sapiens), P53350; recombinant PLK1 kinase, TR-FRET peptide phosphorylation; inhibition, % at 10 µM; actives 0.53% (n = 97,000); AID 619, 2007;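 active = inhibition of 50% or more in the single-concentration screen; inactive = inhibition below 50%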;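 also: 0% = DMSO max control and 100% = H-89 dihydrochloride min control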
VCAM1 TNFa inh = inhibitors of TNFa-induced VCAM1 expression, primary screen, imaging, HUVEC, TNFa stimulus, immunofluorescence | actives 0.48% (n = 95,000) | AID 802, 2007 | inhibition, % at 2 µM | HUVEC TNFa-induced VCAM-1 immunofluorescence, high-content imaging;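 active = inhibition above the batch mean plus 3 SD, with images confirmed as a hit by eye, cut at about 37% in these data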;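 also: 0% = TNF-stimulated DMSO wells and 100% = unstimulated control wells; not every result past the cut was called active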
PLK1 PBD inh = Plk1 polo box domain binding inhibitors, primary screen, biochemical, fluorescence polarization; inhibition, %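 (tested at about 20 µM)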; Plk1 PBD phosphopeptide binding; actives 0.13% (n = 97,000); Serine/threonine-protein kinase PLK1 (Homo sapiens), P53350; in the data active = inhibition above about 34%, passing the limit was not always enough
cytoskel mod = modifiers of F-actin cytoskeleton organization, primary screen, imaging, HUVEC, phalloidin staining, high-content imaging; actives 0.18% (n = 91,000); inhibition, % at 2 µM; HUVEC TNFa F-actin phalloidin imaging; AID 836, 2007;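 active = inhibition above the batch mean plus 3 SD and confirmed as a hit by visual image inspection, cut at about 30% in these data, passing the limit was not always enough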; also: strong numbers were not always called active
TNFa cytotox = cytotoxicity in TNFa-stimulated HUVEC, primary screen, cytotoxicity control for VCAM1 expression modulator project, imaging, Hoechst nuclei count; cell count reduction, % at 2 µM; actives 0.17% (n = 93,000); HUVEC TNFalpha-stimulated, Hoechst cell count;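 active = cell count reduction exceeding the screen mean by over 5 SD, scaled to untreated wells per plate, cut at about 78% in these data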;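 also: cells counted after 24 h of TNF alpha exposure following the 1 h pretreatment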
IL1B cytotox = cytotoxicity in IL-1B stimulated HUVEC, primary screen, cytotoxicity control for IL-1B NFkB translocation project, imaging, Hoechst nuclear count, IL-1B stimulus. HUVEC cell count loss. cell count reduction, % at 2 µM. actives 0.41% (n = 94,000). AID 845, 2007;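 active = cell count reduction more than 3 SD above the screen-wide mean, cut at about 70% in these data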;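 also: normalized per plate to untreated control cells as the no-loss baseline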
DAT uptake mod = changed hDAT dopamine uptake under cocaine IC80, either direction, primary screen, cocaine antagonist project, cell-based, LLC-PK1 hDAT, [14C]-dopamine uptake, MLSMR; LLC-PK1 hDAT cells, [14C]-dopamine uptake with cocaine IC80; actives deviate in either direction; B-score at 10 µM; actives 1.3% (n = 110,000); AID 449768, 2010;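 active = Z score or B-score, a plate-position-corrected score, falls beyond the plate's 99.7% confidence bounds, in either direction; inactive = both scores lie inside the 99.7% bounds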;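 also: scored against the spread of the other compound wells on the same plate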
Target sequence (Q01959 whole entry, looked up): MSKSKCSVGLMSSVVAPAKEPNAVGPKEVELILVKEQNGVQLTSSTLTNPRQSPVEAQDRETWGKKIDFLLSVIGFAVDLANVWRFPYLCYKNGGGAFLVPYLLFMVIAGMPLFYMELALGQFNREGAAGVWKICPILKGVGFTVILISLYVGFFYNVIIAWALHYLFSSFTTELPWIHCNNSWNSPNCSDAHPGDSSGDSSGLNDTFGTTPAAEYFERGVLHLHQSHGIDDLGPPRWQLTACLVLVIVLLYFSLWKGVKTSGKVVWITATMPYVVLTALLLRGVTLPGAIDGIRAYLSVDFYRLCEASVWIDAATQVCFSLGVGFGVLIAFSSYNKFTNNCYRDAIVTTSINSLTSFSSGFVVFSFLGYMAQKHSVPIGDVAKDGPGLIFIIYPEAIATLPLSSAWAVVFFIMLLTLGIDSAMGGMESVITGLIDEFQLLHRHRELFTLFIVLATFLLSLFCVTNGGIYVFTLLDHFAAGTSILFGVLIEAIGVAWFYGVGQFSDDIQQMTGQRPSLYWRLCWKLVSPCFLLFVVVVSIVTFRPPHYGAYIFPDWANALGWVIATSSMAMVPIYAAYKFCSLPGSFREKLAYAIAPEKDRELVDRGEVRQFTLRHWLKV
* = called active by the depositor; x = no result given.

The line under a structure holds: Ecoli WT expand, PLK1 inh, VCAM1 TNFa inh, PLK1 PBD inh, cytoskel mod, TNFa cytotox, IL1B cytotox, DAT uptake mod
- Cc1ccccc1-c1nc(-c2ccc(NC(=O)c3ccc(Br)o3)cc2)no1
    x, -6, -10, -1, 25, -18, x, -0.49
- CCCCC(=O)Nc1ccc(C(=O)NCCCn2ccnc2)cc1
    2, -1, -5, 20, 7, -23, -13, -0.3
- COc1ccc(C2CC2/C(C)=N/OC(=O)c2cccs2)cc1 (stereo not given)
    -1, -11, -8, -8, -5, -16, x, -1
- Cc1ccc(CNc2nc3ccc(C)cc3n3cnnc23)cc1
    -3, -23, -4, -22, -3, -26, 2, -1.1
- Cc1ccccc1N(CC(=O)N/N=C/c1ccccc1Cl)C(=O)c1ccccc1
    -15, -9, 5, 6, 9, -35, 14, 0.088
- O=C(NCc1ccc2c(c1)OCO2)C1CCC(CNS(=O)(=O)c2ccccc2)CC1 (stereo not given)
    -29, -21, 13, -3, -15, -5, 28, -1.7
- COc1ccc(NC(=O)c2ccc(S(=O)(=O)N3CCOCC3)cc2)c(OC)c1
    2, 5, x, 7, x, x, x, 0.2
- Cc1c(NC(=O)C2CCCCN2S(=O)(=O)c2ccc(Cl)cc2)c(=O)n(-c2ccccc2)n1C (stereo not given)
    7, -3, 5, -8, 5, -13, 12, -1
- Clc1ccc(-c2noc(CN3CCN(c4ccccc4)CC3)n2)cc1
    -8, -14, 2, 1, -9, -3, 10, 0.36
- O=C(CN1C(=O)c2ccccc2C1=O)Nc1ccc(S(=O)(=O)NCC2CCCO2)cc1 (stereo not given)
    1, -11, 8, -13, 3, -5, -119, -0.07
- COc1ccc(-c2cc3ccccc3oc2=O)cc1NC(=O)c1cccnc1
    -7, -10, -12, -15, 11, x, -8, 0.074
- COc1ccc(C(=O)CCC(=O)O)c(C)c1
    3, 2, -4, 22, 21, -11, -8, -0.026
- CCc1sc(C(=O)NC2CCN(C)CC2)cc1Br
    2, -7, 4, -12, -4, -11, -198, -0.72
- CCOC(=O)CNC(=O)CSc1nnc(COc2ccc(Cl)cc2)n1CC
    7, -15, 4, -10, 2, -26, -84, 0.021
- Cc1ccc(NC(=O)C(=O)NC2CCCCC2)cc1
    -8, 5, -9, -18, x, -46, -1, -0.62
- Cc1ccc2[nH]c(C(=O)O)c(NC(=O)CN3CCN(c4cccc(C)c4C)CC3)c2c1
    -4, -9, -1, 5, 7, 0, 3, 1.1
- COCCN(CCOC)S(=O)(=O)c1ccc(C(=O)Nc2nc(-c3ccncc3)cs2)cc1
    -7, -8, 4, -13, -7, -17, 15, 0.12
- CC(C)OCCCNC(=O)NC12CC3CC(CC(C3)C1)C2
    3, -7, -11, 21, 17, -26, -81, -0.8
- CCOC(=O)/C(C#N)=C\C1=C(N2CCCC2)CC(C)(CC)OC1 (stereo not given)
    x, -9, 1, -4, -24, 0, 13, -0.32
- O=[N+]([O-])c1cc(-c2n[nH]c(-c3ccccc3)n2)cc([N+](=O)[O-])c1
    6, -3, -2, 6, 8, -4, -33, 0.43
- Cn1c(COc2ccccc2)nnc1SCC(=O)Nc1ccc(S(N)(=O)=O)cc1
    -4, -8, 1, -17, 0, -1, -3, 0.54
- CS(=O)(=O)N(CC(=O)N/N=C/c1cc2c(cc1Br)OCO2)c1ccccc1Br
    -1, -12, 11, -4, 1, -22, x, x
- O=C(NCCCn1ccnc1)c1csc2ccccc12
    12, -2, 3, -16, 6, -34, -10, -0.24
- O=C(Nc1ccc2c(c1)OCCO2)c1cccc(S(=O)(=O)N2CCCCC2)c1
    -2, -5, -10, -3, 20, -6, 11, 0.82
- COC(=O)Nc1ccc(S(=O)(=O)N2CCCCCC2)cc1
    12, -9, 8, 28, 7, 5, -44, 1.6
- CCn1c(COc2ccc(C(C)C)cc2)nnc1SCC(=O)Nc1nccs1
    -9, 0, 15, -12, 4, -29, -43, -1.6
- O=C(Nc1ccc(F)cc1)c1ccc(S(=O)(=O)NCC2CCCO2)cc1 (stereo not given)
    -11, -1, x, -12, 27, x, 14, 1.2
- O=C(CCSc1ccccc1)Nc1ccc(S(=O)(=O)N2CCOCC2)cc1
    -5, -6, -10, 5, 1, -14, 14, -0.47
- Cc1ccc(OCC(=O)N2CCN(C(=O)c3cccs3)CC2)cc1
    -2, -14, 20, 1, 32, -30, -24, 0.012
- CC(=O)Nc1ccc(NC(=O)C2CCCN(c3ncccn3)C2)cc1 (stereo not given)
    x, -10, 3, 3, -4, 12, -10, 2.1
- Cc1cccc(C)c1NC(=O)CN1CCNCC1
    -5, -8, 14, -19, -9, -19, 6, 0.028
- COCCNc1nc2c(c(=O)n(C)c(=O)n2C)n1Cc1cccc(C)c1
    -2, -16, 10, 31, 14, -26, -13, 0.13
- O=C(CSc1nnc2c(Cl)cc(C(F)(F)F)cn12)Nc1ccc2c(c1)OCO2
    -1, -8, -8, 16, 2, -33, -1, -0.64
- COc1cc2c(cc1OC)-c1cc(N3CCCCCC3)nc(=O)n1CC2
    0, -20, -17, -8, 1, 0, -5, 0.49
- CN1CCN(S(=O)(=O)c2ccc(NC(=O)c3cccc(S(=O)(=O)N4CCCC4)c3)cc2)CC1
    3, -12, 10, -20, 17, -46, -13, 0.16
- O=C(CN1CCOCC1)N1CCN(c2nnc(-c3ccccc3)c3ccccc23)CC1
    -7, -7, x, -13, x, x, 16, 0.68
- O=C(/C=C/c1ccc2ccccc2c1)c1ccoc1
    -6, -13, -4, -9, -68, -15, 27, -0.17
- O=C(O)c1cccc(S(=O)(=O)N2CCSCC2)c1
    0, 7, 11, -9, -54, -17, -10, -1.1
- CCOC(=O)Cc1csc(NC(=O)c2ccc(S(=O)(=O)N3CCCCC3)cc2)n1
    -1, -5, 6, -20, 28, -2, -3, -0.0068
- Cc1ccccc1N(CC(=O)N/N=C/c1ccc(N(C)C)cc1)C(=O)c1ccccc1
    2, -7, 6, -15, -8, 5, 3, x

Three entries out of the list above, arranged by the value under DAT uptake mod, largest number first:
mol | DAT uptake mod
O=C(CN1CCOCC1)N1CCN(c2nnc(-c3ccccc3)c3ccccc23)CC1 | 0.68
COc1cc2c(cc1OC)-c1cc(N3CCCCCC3)nc(=O)n1CC2 | 0.49
Cc1cccc(C)c1NC(=O)CN1CCNCC1 | 0.028

4 entries from above, with each value named.
Compound: COC(=O)Nc1ccc(S(=O)(=O)N2CCCCCC2)cc1
  Ecoli WT expand: 12
  PLK1 inh: -9
  VCAM1 TNFa inh: 8
  PLK1 PBD inh: 28
  cytoskel mod: 7
  TNFa cytotox: 5
  IL1B cytotox: -44
  DAT uptake mod: 1.6
Compound: CCn1c(COc2ccc(C(C)C)cc2)nnc1SCC(=O)Nc1nccs1
  Ecoli WT expand: -9
  PLK1 inh: 0
  VCAM1 TNFa inh: 15
  PLK1 PBD inh: -12
  cytoskel mod: 4
  TNFa cytotox: -29
  IL1B cytotox: -43
  DAT uptake mod: -1.6
Compound: O=C(Nc1ccc(F)cc1)c1ccc(S(=O)(=O)NCC2CCCO2)cc1 (stereo not given)
  Ecoli WT expand: -11
  PLK1 inh: -1
  VCAM1 TNFa inh: x
  PLK1 PBD inh: -12
  cytoskel mod: 27
  TNFa cytotox: x
  IL1B cytotox: 14
  DAT uptake mod: 1.2
Compound: O=C(CCSc1ccccc1)Nc1ccc(S(=O)(=O)N2CCOCC2)cc1
  Ecoli WT expand: -5
  PLK1 inh: -6
  VCAM1 TNFa inh: -10
  PLK1 PBD inh: 5
  cytoskel mod: 1
  TNFa cytotox: -14
  IL1B cytotox: 14
  DAT uptake mod: -0.47

The list goes on.
The line under a structure holds: Ecoli WT expand, PLK1 inh, VCAM1 TNFa inh, PLK1 PBD inh, cytoskel mod, TNFa cytotox, IL1B cytotox, DAT uptake mod
- O=C(NCc1nc2ccccc2[nH]1)c1cccc(S(=O)(=O)N2CCOCC2)c1
    13, -5, 18, -13, 6, -14, -2, 0.14
- CC(C)(C)n1nnnc1CN1CCN2CCCC2C1 (stereo not given)
    10, -7, 15, -17, -26, 2, 10, -0.18
- COC(=O)/C(NC(C)=O)=C(\C)c1ccc(Cl)cc1
    x, -7, -9, -4, -6, 4, 29, 0.12
- CC(=O)c1ccc(NC(=O)Nc2ccccc2)cc1
    15, -2, -18, 2, -30, x, -3, 0.96
- COCCNc1nnc(SCC(=O)c2ccc3c(c2)OCO3)s1
    -3, -3, 0, -12, 12, -48, -5, 1.7
- COc1ccc(CCN2C(=O)c3[nH]nc(-c4ccccc4O)c3C2c2ccccc2)cc1OC (stereo not given)
    -5, 4, 2, 1, 13, -47, 13, 0.35
- Cc1nnc(NC(=O)c2ccco2)s1
    -11, -9, 18, -10, -6, -22, -49, -0.03
- CN(C)CCSc1nc(-c2ccccc2)nc2c1COC(C)(C)C2
    -5, 3, -12, -32, 3, -31, -143, 3*
- O=C(Cc1ccc(Cl)cc1)Nc1ccc(N2CCN(C(=O)c3ccco3)CC2)cc1
    2, 9, 12, -3, 0, -24, -15, 0.11
- CC(=O)Cc1nsc(NC(=O)c2c(-c3ccccc3Cl)noc2C)n1
    -4, -15, 25, 3, 0, 14, -106, 0.21
- O=C(CN1C(=O)c2ccccc2C1=O)N1CCN(c2nnc(-c3ccccc3)c3ccccc23)CC1
    -12, -13, 5, 47*, -11, -7, 0, 1.1
- CCN(CC)S(=O)(=O)c1ccc(C(=O)Nc2cccc(C)c2)cc1
    -1, -11, -10, -45, 7, -13, -8, 0.64
- O=C(Cc1ccccc1)N/N=C/c1cc(Br)c(Br)o1
    -3, -6, -24, -6, 13, -44, -11, 1.1
- CCOc1ccccc1C(=O)N1CCOCC1
    1, -6, -10, -4, 0, -20, -3, -0.26
- O=C(COc1ccc(-c2ccccc2)cc1)N1CCN(C(=O)c2cccnc2)CC1
    1, -10, -4, -10, -14, -24, -19, 0.36
- CCOCCCNC(=O)NC12CC3CC(CC(C3)C1)C2
    1, -4, -5, -13, x, -18, -63, -0.32
- COC(=O)c1ccc(NC(=O)C2CCN(S(C)(=O)=O)CC2)cc1
    6, 2, 8, -8, 57, -5, 6, -0.63
- Cc1cc(NS(=O)(=O)c2ccc(NC(=O)Nc3cccc(Cl)c3)cc2)no1
    12, -6, -13, -2, -10, -24, -17, -0.64
- COc1ccc(OC2C(=O)N(CCc3ccc(OC)c(OC)c3)C2c2ccc3c(c2)OCO3)cc1 (stereo not given)
    -16, -11, -4, -21, -9, -1, 8, 0.43
- O=C(NC1CCCCCC1)C1CCN(S(=O)(=O)c2ccccc2)CC1
    -1, -7, -9, 10, -13, -28, -22, 0.37

PLK1 PBD inh: hit marks shown above
| compound | PLK1 inh | VCAM1 TNFa inh | PLK1 PBD inh | cytoskel mod | DAT uptake mod |
| --- | --- | --- | --- | --- | --- |
| O=C(CN1C(=O)c2ccccc2C1=O)N1CCN(c2nnc(-c3ccccc3)c3ccccc23)CC1 | -13 | 5 | 47* | -11 | 1.1 |

Following part
The line under a structure holds: Ecoli WT expand, PLK1 inh, VCAM1 TNFa inh, PLK1 PBD inh, cytoskel mod, TNFa cytotox, IL1B cytotox, DAT uptake mod
- COc1nc(OC)nc(N2CCC(C(=O)NCc3cccs3)CC2)n1
    1, -11, 19, 21, -3, -6, -10, -0.36
- COc1cc(S(=O)(=O)N2CCCCCC2)ccc1Cl
    7, -9, -5, 2, 4, -14, -96, -0.51
- O=C(Nc1ccc2c(c1)OCCO2)c1ccc(S(=O)(=O)N2CCCCC2)cc1
    -12, -9, 4, 16, 0, -56, -6, 1.2
- CCCCn1nnnc1NCc1cc(OC)c(OC)cc1OC
    5, -13, 4, -6, -27, -26, -38, -0.44
- COc1ccc(OC)c(CN(CCCN2CCOCC2)S(=O)(=O)c2ccc(NC(C)=O)cc2)c1
    -2, -5, -27, 1, 19, -22, -7, 1.9
- O=c1cc(CN2CCN(c3ccccc3)CC2)c2c(ccc3ccccc32)o1
    -16, -2, 15, 35, x, -20, -98, -0.017

Only part of the results is shown, so the mix of outcomes need not match the whole.
